GIV-Gai inh = GIV-Galpha-i interaction inhibition; Galpha-i3/FITC-GIV peptide fluorescence polarization, 90 min; stronger effect = lower value; scaled: aluminum fluoride 0%, vehicle 100%; percent of control (FP), % (concentration not given with the values); 210,000 compounds, 0.42% hits; AID 1224905;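 active = replicate mean at 85% of control or lower, very high polarization wells dropped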;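 also: wells of about 15 µL received 100 nL stock; the first replicate is given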
Target sequence (P08753 whole entry, looked up): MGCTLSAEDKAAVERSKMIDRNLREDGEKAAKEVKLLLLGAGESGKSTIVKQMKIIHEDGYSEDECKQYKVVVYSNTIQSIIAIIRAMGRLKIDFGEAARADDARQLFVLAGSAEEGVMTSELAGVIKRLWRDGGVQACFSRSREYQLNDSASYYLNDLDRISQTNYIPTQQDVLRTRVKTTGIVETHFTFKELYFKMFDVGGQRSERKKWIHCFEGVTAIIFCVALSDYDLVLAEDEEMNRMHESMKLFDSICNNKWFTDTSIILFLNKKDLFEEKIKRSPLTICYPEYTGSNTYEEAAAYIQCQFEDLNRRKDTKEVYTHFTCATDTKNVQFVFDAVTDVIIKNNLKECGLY
HCMV NEC inh = inhibitors of HCMV UL50-UL53 nuclear egress complex interaction. HTRF UL50-UL53 interaction, normalized percent inhibition. inhibition, % (test concentration not listed). 190,000 compounds, 0.15% hits;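 active = both replicates at 50% or more, plus weaker picks with an unusually low signal ratio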;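 also: stock transfer was 100 nL into about 20 µL; 0% = negative control wells and 100% = wells with untagged competitor protein; inactives centre near -12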
Sa growth 42C = S. aureus growth inhibition; AID 720641; relative growth, % (no concentration beside the values); S. aureus RN4220 growth, OD600, 20 h, 42 °C; stronger effect = lower value; 170,000 compounds, 0.53% hits;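 active = growth at 42 °C up to 50% and 20 or more points under that at 30 °C, or under 10% at both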;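 also: 300 nL library stock went into each well; scaled to the means of positive and negative controls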
Sa growth 42C second temp = also measured in Sa growth 42C; calls as there; relative growth, %; measured here: growth at 30 °C;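 optical density after 20 h as mean of two plates; 100% = untreated growth and lower means inhibition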
* marks the source's active call; other numbers are inactive results; · = not tested or not shown; & = joins results of further samples.

SMILES	GIV-Gai inh	HCMV NEC inh	Sa growth 42C	Sa growth 42C second temp
CCOC(=O)CC1=NN(c2ccccc2)C(=O)/C1=C\c1cc(OC)c(OC)cc1OC	104	·	127	95
CCOc1ccc(NC(=O)Cn2c(C)cc(C)c(S(=O)(=O)c3ccc(C)cc3)c2=O)cc1	97	-19	·	·
CC(=O)N1Cc2ccccc2C(C)CC12CCCCC2 (stereo not drawn)	103	20	86	94
CCc1noc(-c2ccc(N3CCCCC3C)c([N+](=O)[O-])c2)n1 (stereo not drawn)	101	-18	98	85
CCn1nc(C)c2c(-c3ccccc3)cc(=O)n(C(C)C(=O)NCCc3ccccc3)c21 (stereo not drawn)	99	·	96	90
CCn1cc2nc(SCc3ccc(F)cc3)n(Cc3ccc(Cl)cc3)c(=O)c2n1	97	·	95	91
CC(=O)c1cc(-c2ccccc2)n(CCC(=O)Nc2cc(C)cc(C)c2)c1C	99	·	107	94
O=C(O)c1cccn2c(=O)c3c4c(sc3nc12)CCCC4	104&102	-72	91	86
CCOc1ccc(N=Cc2ccc(N(C)CCC#N)cc2)cc1	100	-19	91	101
OCCOc1c(Cl)cc(Cl)c2cccnc12	·	-21	30	39
CC(C)CCn1c(SCC(N)=O)nc2c1c(=O)[nH]c(=O)n2C	104	9	·	·
O=C(COC(=O)Cc1ccccc1F)Nc1cccc(Br)c1	·	-20	92	89
O=C(CCNc1ccc(Cc2ccncc2)cc1)c1ccc(Cl)cc1	·	-22	84	85
O=C(O)c1cncc(Cl)c1	97	-6	84	89
O=C(COc1ccc2c(c1)CCC2)NCCc1ccccn1	·	0	100	97

Given in CSV form: entries from further up.
mol,GIV-Gai inh,HCMV NEC inh,Sa growth 42C,Sa growth 42C second temp
O=C(O)c1cncc(Cl)c1,97,-6,84,89
O=C(COc1ccc2c(c1)CCC2)NCCc1ccccn1,·,0,100,97

(list continues)
SMILES	GIV-Gai inh	HCMV NEC inh	Sa growth 42C	Sa growth 42C second temp
Cc1ccc(C(=O)/C=C2\N/C(=N\S(=O)(=O)c3ccc(N)cc3)NC2=O)cc1	96	·	69	98
O=C(Nc1ccc(-c2ccccc2)oc1=O)c1ccccc1	101	-24	·	·
Cc1ccc(NC(=O)c2ccc(-n3nc(OCc4ccc(Cl)cc4)ccc3=O)cc2)cc1Cl	108	-30	·	·
CN(CC(=O)N1CC=C(c2ccccc2)CC1)S(=O)(=O)c1cnc[nH]1	97	·	109	83
COc1cccc(NC(=O)CCCOc2cc(=O)n(C)c3ccccc23)c1	103	-20	99	91
N#Cc1ccccc1NC(=O)CNC12CC3CC(CC(C3)C1)C2	·	-35	86	89
Cc1ccc(C)c(N2CCN(C(=O)C3CCCN(c4nc5cccnc5s4)C3)CC2)c1 (stereo not drawn)	108	-20	·	·
O=C1NC2(CCCCC2)N(C(=O)COc2ccc(Cl)cc2)C2=C1CCCC2	·	-27	104	92
Cc1cc2c(s1)CCc1cc(C(=O)O)sc1-2	99	-61	84	76
Cc1cc(C)cc(-n2c(CCC(=O)O)ccc2-c2cccs2)c1	106	-20	98	76
CS(=O)(=O)Nc1ccc(C(=O)Nc2ccccc2)cc1	·	-4	85	84
CSc1nc2c(c(-c3ccccc3)c1C#N)C(=O)CC(C)(C)C2	·	-23	113	82
Cc1ccc(N2CCN(C(=O)CCc3c(C)nc4c(c3C)c(=O)n(C)c(=O)n4C)CC2)c(C)c1	107	-32	106	91
CC(C)n1c(NN)nc2ccccc21	·	-8	130	89
N#CC(C(=O)N1CCCC1)C(=S)Nc1cccc(C(F)(F)F)c1 (stereo not drawn)	108	4	99	90
Cc1cc(SCC(=O)NC(=O)NCc2ccco2)nc2c(C)cccc12	·	-11	94	101
O=C(Nc1ccccc1)N1CCN(S(=O)(=O)c2ccccc2)CC1	102	-2	96	85
CC(C)n1nccc1C(=O)O	103	-12	103	96
CN(CC(=O)O)S(=O)(=O)c1ccc(Oc2ccccc2)cc1	99	-24	102	107
O=C(Cc1ccccc1)Nc1c(C(=O)N2CCCCC2)cnn1-c1ccccc1	·	-1	113	91
CC(C(=O)OCn1nnc2ccccc2c1=O)N1C(=O)c2ccccc2C1=O (stereo not drawn)	·	-19	101	93
NS(=O)(=O)c1ccc(CCNC(=O)C2CCCN(S(=O)(=O)c3cnc[nH]3)C2)cc1 (stereo not drawn)	101	-16	·	·
CN(CC(=O)NCc1ccccc1F)C(=O)c1ccco1	105	-24	96	89
N#CC1=C(N)OC2=C(C(=O)CCC2)C1c1ccc(OC(=O)N2CCOCC2)cc1 (stereo not drawn)	106	-27	·	·
O=C1CC(c2ccccc2)Sc2nc(-c3ccc(F)cc3)nn21 (stereo not drawn)	103	-39	95	84
CCOc1ccc(NC(=O)c2cc(S(=O)(=O)N3CCCC(C)C3)cn2C)cc1 (stereo not drawn)	106	-20	·	·
Brc1ccc2c(c1)c1ccccc1n2CN1CCCCC1	110	-6	111	97
COc1ccccc1NC(=O)C1=C(O)c2ccccc2N(Cc2ccc(Cl)cc2)S1(=O)=O	105	-4	·	·
CCCc1c(-c2ccccc2)nc2sc3c(c2c1N)CCCCC3	109	·	77	87
CSc1ccccc1NS(=O)(=O)c1cccs1	97	-3	85	76

Brought forward from above: seven entries, then new ones.
SMILES	GIV-Gai inh	HCMV NEC inh	Sa growth 42C	Sa growth 42C second temp
N#CC1=C(N)OC2=C(C(=O)CCC2)C1c1ccc(OC(=O)N2CCOCC2)cc1 (stereo not drawn)	106	-27	·	·
O=C1CC(c2ccccc2)Sc2nc(-c3ccc(F)cc3)nn21 (stereo not drawn)	103	-39	95	84
CCOc1ccc(NC(=O)c2cc(S(=O)(=O)N3CCCC(C)C3)cn2C)cc1 (stereo not drawn)	106	-20	·	·
Brc1ccc2c(c1)c1ccccc1n2CN1CCCCC1	110	-6	111	97
COc1ccccc1NC(=O)C1=C(O)c2ccccc2N(Cc2ccc(Cl)cc2)S1(=O)=O	105	-4	·	·
CCCc1c(-c2ccccc2)nc2sc3c(c2c1N)CCCCC3	109	·	77	87
CSc1ccccc1NS(=O)(=O)c1cccs1	97	-3	85	76
Nc1nonc1-c1ccccc1	102	·	106	92
N/C(=N\N=C1CCCCCC1)SCn1nnc2ccccc2c1=O	·	-33	101	93
O=C(OCn1nnc2ccccc2c1=O)C1COc2ccccc2O1 (stereo not drawn)	·	-28	93	95
O=C(/C=C/c1ccc(Br)o1)OCc1ccccc1	·	-30	115	93
CC1(C)CSC(=NCc2ccccc2)N1C(=O)Cn1[nH]c(=O)c2ccccc2c1=O	·	-11	86	92
COc1ccccc1-c1nnc(C2CCN(S(=O)(=O)c3ccc(Cl)s3)CC2)o1	106	6	111	81
O=C(CSc1ccccn1)NCc1ccccc1	·	7	97	127
CC1(C(=O)NC2CCCC2)Cn2c(cc3sccc32)C(=O)N1CCc1ccc(Cl)cc1 (stereo not drawn)	95	5	·	·
CN(C)S(=O)(=O)c1ccc2c(c1)c(C(=O)O)cn2C	99	-31	·	·
Cc1ccc(Cl)cc1N1CCN(C(=O)c2cn(C3CCCCC3)c(=O)c3c2c2ccccc2n3C)CC1	103	-10	104	72
Cc1ccccc1OCC(=O)Nc1ccc2nc(SCC(=O)N3CCc4ccccc43)sc2c1	98	2	87	90
CC(C)N(Cc1ccccc1)S(=O)(=O)c1ccc(-c2cc(C(F)(F)F)on2)s1	99	·	100	88
CCN(CC)Cc1nc2ccccc2n1C	105	-21	116	102
Cc1ccccc1-n1c(=S)[nH]c2nc3c(cc2c1=O)CCCC3	98	·	105	84
O=C(CNCCc1ccc(F)cc1)N1N=C(c2ccc(Cl)cc2)CC1c1ccco1 (stereo not drawn)	·	-39	72	-1
O=C1/C(=C\c2ccccc2Cl)SC(=S)N1CN1CCOCC1	105	-36	·	·
CC(=O)Nc1ccc(OCCOc2ccc(NC(C)=O)cc2)cc1	108	6	110	103
Cc1cc(C)c2oc(C(=O)NCC(c3ccc(C(C)(C)C)cc3)N(C)C)cc(=O)c2c1 (stereo not drawn)	106	-28	·	·
O=C1CS/C(=N/N=C/c2ccccc2O)N1	·	-16	94	88
COc1ccc(NC(=O)c2sc3nc4c(cc3c2N)CN(Cc2ccccc2)CC4)cc1OC	102	-15	104	86
O=C(NCCc1ccccc1)c1noc2c1CCc1ccccc1-2	105	·	107	96
O=C(NC1CCCCCC1)C1=NN(C2CCS(=O)(=O)C2)C(=O)CC1 (stereo not drawn)	·	-19	83	87
CN(C)S(=O)(=O)c1ccc2c(c1)N(CC(=O)N1CCN(c3ccccn3)CC1)CCS2	112	-26	·	·
O=c1c(CNc2ccccc2)cc2cccc3c2n1CCC3	101	-23	97	88
Cc1cn2c(=O)c(C(=O)N3CCN(C(c4ccccc4)c4ccccc4)CC3)cnc2s1	103	-12	85	72
CSc1nc2c(c(=O)[nH]1)C(c1cc(C)ccc1C)CC(=O)N2 (stereo not drawn)	99	-15	89	91
N#CC(C#N)=Cc1ccc(-c2ccc3c(c2)COC3=O)o1	102	-34	98	70
Cc1ccc(CN2C(=O)C3(c4ccccc42)N(c2ccc(C)c(Cl)c2)C(=O)CS3(=O)=O)cc1 (stereo not drawn)	105	-7	93	98
N#Cc1c(-c2ccc(F)cc2)cc(-c2ccco2)nc1SCC(=O)Oc1ccccc1	·	-10	96	90
CN(C(=O)c1ccc(S(=O)(=O)N2CCCC2)cc1)C1CCCCC1	·	-14	97	94

3 of these compounds in a different format.
Molecule | GIV-Gai inh | HCMV NEC inh | Sa growth 42C | Sa growth 42C second temp
CC(C(=O)OCn1nnc2ccccc2c1=O)N1C(=O)c2ccccc2C1=O (stereo not drawn) | · | -19 | 101 | 93
NS(=O)(=O)c1ccc(CCNC(=O)C2CCCN(S(=O)(=O)c3cnc[nH]3)C2)cc1 (stereo not drawn) | 101 | -16 | · | ·
CN(CC(=O)NCc1ccccc1F)C(=O)c1ccco1 | 105 | -24 | 96 | 89

Returning to the listing, starting six compounds before the break.
SMILES	GIV-Gai inh	HCMV NEC inh	Sa growth 42C	Sa growth 42C second temp
Cc1cn2c(=O)c(C(=O)N3CCN(C(c4ccccc4)c4ccccc4)CC3)cnc2s1	103	-12	85	72
CSc1nc2c(c(=O)[nH]1)C(c1cc(C)ccc1C)CC(=O)N2 (stereo not drawn)	99	-15	89	91
N#CC(C#N)=Cc1ccc(-c2ccc3c(c2)COC3=O)o1	102	-34	98	70
Cc1ccc(CN2C(=O)C3(c4ccccc42)N(c2ccc(C)c(Cl)c2)C(=O)CS3(=O)=O)cc1 (stereo not drawn)	105	-7	93	98
N#Cc1c(-c2ccc(F)cc2)cc(-c2ccco2)nc1SCC(=O)Oc1ccccc1	·	-10	96	90
CN(C(=O)c1ccc(S(=O)(=O)N2CCCC2)cc1)C1CCCCC1	·	-14	97	94
NNc1nc(-c2ccccc2)c2cc(Br)ccc2n1	·	-51	151	80
O=C(CCc1nc(CN2CCN(C(=O)c3ccc(Cl)cc3)CC2)no1)N1CCOCC1	104	-6	·	·
Cc1ccc(N2C(=O)C3N=NN(CC(=O)Nc4ccc(F)cc4)C3C2=O)cc1C (stereo not drawn)	99	-18	·	·
Cc1c(NC(=O)CC(O)(C(F)(F)F)C(F)(F)F)c(=O)n(-c2ccccc2)n1C	95	-9	107	98
Cc1ccc(NC(=O)CSc2nc(-c3ccc(F)cc3)nc3c2Cc2c(CO)cnc(C)c2O3)cc1C	99	·	109	94

Source: PubChem (ICCB-Longwood Screening Facility, Harvard Medical School)
